PrP UTR inh – suppresses PrP 5' UTR mRNA reporter expression; inhibition, % (test concentration not listed); cell-based PrP 5' UTR mRNA reporter, plate reader; 0.35% of 340,000 active;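 active = every replicate at 50% or more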;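 note: 0 = median of the neutral control wells; tested in H4 reporter cells; numbers are from one replicate; inactives centre near -14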
BJeLR lethal – BJeLR cell viability loss; BJeLR (HRASV12) viability, CellTiter-Glo ATP luminescence, 48 h; reference of the scale not given here; 0.17% of 300,000 active; inhibition, % (no concentration beside the values);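 active = replicate mean above 50%; inconclusive = above 50% but judged a plate artefact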;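 note: 50 nL library stock added to about 25 µL; numbers are from one replicate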
Sa ugtP lethal – growth inhibition of S. aureus ugtP deletion strain | S. aureus RN4220 ugtP deletion, OD600 growth, 16 h; some inactives read as strong as hits | growth inhibition, % (test concentration not listed) | 0.54% of 330,000 active;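 active = z-score under -3 and OD600 up to 0.15 on both plates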;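 note: plate controls were untreated wells for no effect and antibiotic for full effect; wells of about 80 µL received 100 nL stock; the first replicate is given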
RN4220 kill – S. aureus RN4220 growth inhibition | inhibition, % (no concentration beside the values) | OD600, 16 h | 0.33% of 330,000 active | AID 1259311;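 active = z-score of -3 or lower and OD600 up to 0.18 on both plates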;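 note: plate controls were untreated cells for no effect and reference antibiotic for full effect; stock transfer was 100 nL into about 80 µL; one replicate is shown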
Mtb hypoxia rep – reduces hypoxia-regulated biosensor signal in M. tuberculosis. fluorescence inhibition, % (test concentration not listed). 0.1% of 300,000 active. M. tuberculosis hypoxia-regulated fluorescent reporter, fluorescence;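 active = 35 to 45% if threefold the growth effect, above 45% if 1.5-fold the growth effect; inactive = the rest, general growth blockers included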;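 note: wells of about 50 µL received 100 nL stock; 0% = vehicle wells and 100% = reference inhibitor wells; whole bacteria with a GFP reporter of the hypoxia response; strong numbers were not always called active; many hits fall short of the cut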
Bead autofluor – flagged as autofluorescent in microsphere protease counterscreen; compound autofluorescence counterscreen, microsphere flow cytometry; hits give high values; 3.1% of 360,000 active; fluorescence intensity (test concentration not listed); AID 624483;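 active = at least 3 SD above the mean of all compounds, about 16000 in these data; inconclusive = too few beads counted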;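 note: 100 nL of 1 mM stock went into each well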
Mtb hypoxia rep growth – second read-out of Mtb hypoxia rep, no call of its own (marks repeat the call); growth inhibition, %; measured here: M. tuberculosis growth (absorbance);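 0% = vehicle and 100% = reference antibiotic; read after six days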
Starred values were filed as active, the others as inactive; ? = inconclusive; . = no result given.

1) Cc1cc(Cl)ccc1OCC(=O)NN=Cc1ccc(OC2OC(CO)C(O)C(O)C2O)cc1 (configuration not stated)
2) CN(C)CCNC(=O)c1ccc2c(c1)NC(=O)c1ccccc1S2
3) O=C(c1ccc(OC2CCN(Cc3ccccn3)CC2)cc1)N1CCCCCC1
4) O=C1CC(C(=O)Nc2ccc(Cl)cc2)n2ncnc2N1 (configuration not stated)
5) O=S(=O)(Nc1ccc(N=Nc2ccccc2)cc1)c1ccccc1
6) O=C(Nc1ccc(N2CCOCC2)cc1)c1cccc(S(=O)(=O)N2CCCCCC2)c1
7) COc1ccc(C(=O)N(Cc2nc(-c3ccc(C)cc3)no2)C(C)C)cc1OC
8) Cc1ccc(/C=C/C(=O)Nc2sc(C)c(C)c2C(=O)OC(C)C)o1

assay / compound	1	2	3	4	5	6	7	8
PrP UTR inh	.	-18	3	-3	-5	-18	-4	-2
BJeLR lethal	.	13	-3	6	4	8	-8	4
Sa ugtP lethal	-7	5	-8	8	-2	5	8	20
RN4220 kill	-3.6	3.0	1.5	6.6	-9.8	-1.8	2.2	4.7
Mtb hypoxia rep	-7	17	8	4	18	13	6	3
Mtb hypoxia rep growth	2	4	1	-2	3	-2	9	1
Bead autofluor	.	3912	4340	3036	2405	3868	4337	10023

9) COc1ccc(NS(=O)(=O)c2cccc(C(=O)NCC(c3ccco3)N3CCCCC3)c2)cc1 (configuration not stated)
10) O=C(CNC(=O)c1cccc(Cl)c1)NCC(c1cccs1)N1CCOCC1 (configuration not stated)
11) COC(=O)c1ccc(CSc2ccc3nnc(-c4ccccc4)n3n2)o1
12) CCc1nn2c(=O)cc(COC(=O)c3ccc(SC)cc3OC)nc2s1
13) CC(CN1CCCCC1)OC(=O)COc1ccc(Br)cc1 (configuration not stated)
14) CCOC(=O)c1c(C)[nH]c(C(=O)COC(=O)c2[nH]c(C)c(C(C)=O)c2C)c1C
15) O=C(CCC1CCCN(Cc2ccc3c(c2)CCO3)C1)NCc1ccc(F)c(F)c1 (configuration not stated)
16) CCCCN(CC)CCNC(=O)Cn1cnc2sc(C)c(S(=O)(=O)N3CCOCC3)c2c1=O

assay / compound	9	10	11	12	13	14	15	16
PrP UTR inh	-14	0	-13	-30	-23	-10	-31	-23
BJeLR lethal	0	.	0	.	-1	16	-7	-4
Sa ugtP lethal	6	-1	13	0	5	5	8	6
RN4220 kill	0.4	3.4	0.3	1.5	3.8	1.0	2.0	3.3
Mtb hypoxia rep	2	-2	5	4	-1	-1	17	2
Mtb hypoxia rep growth	6	-5	7	7	6	4	-2	-2
Bead autofluor	6735	6519	5961	7999	4370	9814	2922	3719

17) C=CCNC(=O)C1CC(=O)N(c2ccc(OCC(=O)N3CCCC3)cc2)C1 (configuration not stated)
18) COc1ccc(/C=N/NC(=O)c2cc(OC)c(OC)c(OC)c2)cc1CN1CCc2cc(OC)c(OC)cc2C1C (configuration not stated)
19) CCOc1cc2[nH]c(=S)n(Cc3ccc(C(=O)O)cc3)c(=O)c2cc1OCC
20) Cc1ccccc1NC(=O)Cn1nnc2ccccc21
21) CCC1CCCCN1CCCNC(=O)CNC(=O)c1nn(-c2ccc(OC)c(Cl)c2)c(=O)c2ccccc12 (configuration not stated)
22) CN1CCN(C(=O)c2ccc(-n3cccn3)nc2)CC1
23) Cc1nnc(NC(=O)c2ccc(N3CCCC3=O)cc2)s1
24) COC(=O)COc1ccc(C2NC(=O)NC(C)=C2C(=O)NCc2ccccc2)cc1OC (configuration not stated)

assay / compound	17	18	19	20	21	22	23	24
PrP UTR inh	-1	-4	-24	-12	-20	-13	-51	-13
BJeLR lethal	-5	4	8	-7	-2	1	.	3
Sa ugtP lethal	6	.	4	1	6	2	4	-7
RN4220 kill	1.0	.	3.5	2.1	7.4	1.3	6.0	-1.7
Mtb hypoxia rep	-8	.	-1	10	4	8	3	-10
Mtb hypoxia rep growth	-9	.	3	10	7	-1	1	4
Bead autofluor	3823	6131	3991	3579	4172	2562	?	5334

25) CC(=NNC(=O)c1cccc(C)c1)c1ccc(N2CCOCC2)cc1
26) C(CCCN1CCCCC1)CCN1CCCCC1
27) Cc1nccc2[nH]c(=O)c(C(=O)NC(C)CCc3ccccc3)cc12 (configuration not stated)
28) O=C(C1=C(O)C(=O)N(CCN2CCOCC2)C1c1cccc([N+](=O)[O-])c1)c1cccs1 (configuration not stated)
29) Cc1ccc(C2=NS(=O)(=O)N(C)C(C(=O)Nc3cc(C)n(CC(=O)N4CCCCC4)n3)=C2)cc1
30) CN(C)c1ccc(/C=C2\C(=N)N3C(=NC2=O)Sc2cc(S(C)(=O)=O)ccc23)cc1
31) COc1ccc(Cl)cc1S(=O)(=O)N1CCN=C1Cc1ccccc1
32) CSc1nc(NS(=O)(=O)c2cc(Br)ccc2Br)cc(=O)[nH]1

assay / compound	25	26	27	28	29	30	31	32
PrP UTR inh	.	-17	.	-10	-13	.	-17	-8
BJeLR lethal	.	7	-4	0	-4	1	-6	-16
Sa ugtP lethal	2	12	4	-4	0	6	1	20
RN4220 kill	1.9	4.0	4.1	1.8	3.5	2.8	3.5	6.7
Mtb hypoxia rep	-7	-11	16	0	4	6	14	3
Mtb hypoxia rep growth	0	-6	6	-2	0	7	5	-2
Bead autofluor	.	3653	.	2911	5611	.	5829	5684

33) O=C(NN=C(Cc1ncc[nH]1)c1ccccc1)c1cccnc1
34) O=C(CCNC(=O)c1ccc([N+](=O)[O-])cc1)Nc1ccc(Cl)c(S(=O)(=O)N2CCOCC2)c1
35) CCOc1ccc(-n2c(C)cc(/C=C3/C(=N)N4C(=NC3=O)SN=C4S(C)(=O)=O)c2C)cc1
36) O=C(NCc1ccco1)C1(c2ccc(Br)cc2)CCCC1
37) COc1ccc(CN(C)CC(=O)N(C)CC(=O)Nc2ccccc2Br)cc1F
38) CCOC(=O)Nc1cc(NC(=O)OCC)ncn1
39) CC(NS(=O)(=O)c1ccc2c(c1)C(C)(C)C(=O)N2C)c1ccccc1 (configuration not stated)
40) C/C(=N\NC(=O)c1c(Cl)cnn1C)c1cccc(NC(=O)c2ccc(C)cc2)c1

assay / compound	33	34	35	36	37	38	39	40
PrP UTR inh	.	-5	-21	-7	-8	7	15	-22
BJeLR lethal	.	.	3	1	.	.	4	-1
Sa ugtP lethal	5	5	.	11	5	1	2	.
RN4220 kill	5.2	4.5	.	1.9	7.5	-0.2	5.2	.
Mtb hypoxia rep	-5	-6	.	8	-2	3	.	.
Mtb hypoxia rep growth	10	-2	.	8	-2	0	.	.
Bead autofluor	.	2854	2470	7593	8081	2969	5697	6220

41) Cc1ccc(S(=O)(=O)Nc2ccnc3ccccc23)cc1
42) Cc1ccc(S(=O)(=O)NCCSc2ncccn2)cc1
43) Cc1cc(OC(=O)c2ccc(Cl)cc2Cl)c([N+](=O)[O-])c(=O)[nH]1
44) Cc1ccc(NC(=O)COc2ccccc2)cc1Cl
45) CCOC(=O)c1cccc(-c2c(-c3ccccc3)ncc3cc(OC)c(OC)cc23)c1
46) CCCn1c(SCC(=O)Nc2cccc(S(=O)(=O)N3CCCC3)c2)n[nH]c1=O
47) Cc1ccc(-c2nc(COC(=O)c3c(C)noc3C)cs2)cc1
48) S=c1[nH]nc(C2CCCCC2)n1/N=C/c1ccc(Br)s1

assay / compound	41	42	43	44	45	46	47	48
PrP UTR inh	-27	-20	-20	-42	-33	-32	-31	-26
BJeLR lethal	-6	0	-3	1	.	26	-1	-16
Sa ugtP lethal	10	6	9	3	0	18	5	.
RN4220 kill	7.2	4.6	4.4	4.1	12	5.1	4.1	.
Mtb hypoxia rep	0	17	8	4	12	1	-7	.
Mtb hypoxia rep growth	2	10	12	3	14	8	1	.
Bead autofluor	3203	4437	5187	3699	3901	4267	9900	10813

49) CC1CCCC(NC(=O)COC(=O)c2sc3ccccc3c2Cl)C1C (configuration not stated)
50) Nc1nnc(SCC(=O)NC2CCCCC2)n1-c1ccccc1
51) CCN(C(=O)COC(=O)C1=COCCO1)c1ccccc1
52) Cc1ccc(C2=NNC(=O)C(c3c[nH]c4ccccc34)C2)cc1 (configuration not stated)
53) CCCCCC1CC(CC(=O)Nc2nncs2)C(=O)O1 (configuration not stated)
54) CC(C)(C)C(=O)O[C@H]1CC[C@@]2(C)C(=CC(=O)C3C2CC[C@]2(C)C(=O)CCC32)C1 (some centres not stated)
55) O=C(O)C(Cc1c[nH]c2ccccc12)N1CCS(=O)(=O)CC1 (configuration not stated)
56) O=C(Cn1ncc2c3ccccc3n(Cc3ccccc3F)c2c1=O)NCC1CCCO1 (configuration not stated)

assay / compound	49	50	51	52	53	54	55	56
PrP UTR inh	-11	-6	4	-19	-13	-46	-14	-6
BJeLR lethal	7	3	.	-7	-1	.	-1	-18
Sa ugtP lethal	-7	15	-2	-5	4	6	2	1
RN4220 kill	-1.8	0.4	1.0	4.8	2.7	3.6	2.3	1.4
Mtb hypoxia rep	7	2	0	14	-3	9	8	-1
Mtb hypoxia rep growth	3	-9	4	2	-1	8	1	-2
Bead autofluor	2483	9087	3827	4150	4509	3756	4299	6148

A draw from above in order of formula weight, high to low.
34) O=C(CCNC(=O)c1ccc([N+](=O)[O-])cc1)Nc1ccc(Cl)c(S(=O)(=O)N2CCOCC2)c1
30) CN(C)c1ccc(/C=C2\C(=N)N3C(=NC2=O)Sc2cc(S(C)(=O)=O)ccc23)cc1
25) CC(=NNC(=O)c1cccc(C)c1)c1ccc(N2CCOCC2)cc1
50) Nc1nnc(SCC(=O)NC2CCCCC2)n1-c1ccccc1
52) Cc1ccc(C2=NNC(=O)C(c3c[nH]c4ccccc34)C2)cc1 (configuration not stated)

assay / compound	34	30	25	50	52
PrP UTR inh	-5	.	.	-6	-19
BJeLR lethal	.	1	.	3	-7
Sa ugtP lethal	5	6	2	15	-5
RN4220 kill	4.5	2.8	1.9	0.4	4.8
Mtb hypoxia rep	-6	6	-7	2	14
Mtb hypoxia rep growth	-2	7	0	-9	2
Bead autofluor	2854	.	.	9087	4150

Next part:
57) CN(CC(=O)Nc1cccc(F)c1)C(=O)c1ccc(N2CCCCC2)c([N+](=O)[O-])c1
58) COC(=O)c1ccc(NC(=O)COc2coc(CN3CCc4ccccc43)cc2=O)cc1
59) O=S(=O)(c1ccc(Cl)cc1)N1CCC2(CC1)CO2
60) O=C(CN(Cc1ccccc1)C(=O)c1cccc([N+](=O)[O-])c1)Nc1c(Cl)cc(Cl)cc1Cl
61) CCOC(=O)Oc1ccc2oc(=O)cc(C)c2c1
62) Cc1ccc(CN2CCN(C)CC2)c(C)c1
63) Cc1cc(C)nc(-n2nc(C)c3c(C(F)(F)F)cc(=O)[nH]c32)n1
64) COc1ccc(CCN2CC3=C(C2=O)C(c2ccccc2)NC(=O)N3C)cc1OC (configuration not stated)

assay / compound	57	58	59	60	61	62	63	64
PrP UTR inh	-25	-10	-8	-13	-21	-5	-2	-11
BJeLR lethal	-7	7	-3	-3	1	.	-5	3
Sa ugtP lethal	5	-4	4	-3	2	-3	-1	7
RN4220 kill	2.3	-3.4	4.7	7.4	4.1	1.7	-1.3	6.0
Mtb hypoxia rep	10	-8	-3	10	9	7	.	8
Mtb hypoxia rep growth	1	-8	2	0	14	15	.	8
Bead autofluor	.	5646	4506	10813	9171	9730	4814	7179

65) O=C(O)c1ccccc1P(=O)(c1ccccc1)c1ccccc1
66) NC(=O)c1ccc(NCc2ccco2)c([N+](=O)[O-])c1
67) CC1CCCN(C(=O)c2cc(F)c(F)cc2Cl)C1 (configuration not stated)
68) CCn1c(SCC(=O)N2CCCC(C)C2)nc2c1c(=O)n(C)c(=O)n2C (configuration not stated)
69) C(/CCc1ccccc1)=N\n1cnnc1
70) CC1(C)OC2C(CO)OC(n3cc(Br)c(=O)[nH]c3=O)C2O1 (configuration not stated)
71) Fc1ccc(Nc2nc(N3CCOCC3)nc(N3CCOCC3)n2)cc1Cl
72) Cc1nn(-c2ccccc2)c(C)c1/C=N/NC(=O)c1cc(-c2ccc(Br)s2)[nH]n1
73) COc1ccc(S(=O)(=O)N2CCN(c3ccccc3OC)CC2)cc1

assay / compound	65	66	67	68	69	70	71	72	73
PrP UTR inh	-13	-2	-19	-26	-2	.	5	-12	-31
BJeLR lethal	-7	1	1	7	2	.	1	20	1
Sa ugtP lethal	5	4	4	-1	.	-1	-18	.	4
RN4220 kill	1.9	0.2	3.5	3.8	.	-0.1	2.3	.	3.3
Mtb hypoxia rep	10	.	7	12	.	3	14	.	-13
Mtb hypoxia rep growth	15	.	10	2	.	9	6	.	-2
Bead autofluor	4521	2233	22587*	3911	10656	.	5238	21752*	3544

Compounds as they come. Share with any hit: about 4%.
